TRPML1 blocker: blocks the human TRPML1 channel; TRPML1-inducible cells, Ca2+ dye fluorescence, FDSS; active compounds read low; inhibition of EC80 agonist-evoked calcium signal; activity change, negative = inhibition, % (concentration not given with the values); Q9GZU1; AID 624415; hit rate 0.02% among 390,000; in the data active means activity change below about -50%; inconclusive means about -30% to -50%; inactive means above about -30%;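 note: stimulus is agonist 54-4 at its EC80 concentration; % is set by controls: 0 for no effect and ±100 for the full control effect; the text of the record puts the active cut at -80%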
Target sequence (Q9GZU1 whole entry, looked up): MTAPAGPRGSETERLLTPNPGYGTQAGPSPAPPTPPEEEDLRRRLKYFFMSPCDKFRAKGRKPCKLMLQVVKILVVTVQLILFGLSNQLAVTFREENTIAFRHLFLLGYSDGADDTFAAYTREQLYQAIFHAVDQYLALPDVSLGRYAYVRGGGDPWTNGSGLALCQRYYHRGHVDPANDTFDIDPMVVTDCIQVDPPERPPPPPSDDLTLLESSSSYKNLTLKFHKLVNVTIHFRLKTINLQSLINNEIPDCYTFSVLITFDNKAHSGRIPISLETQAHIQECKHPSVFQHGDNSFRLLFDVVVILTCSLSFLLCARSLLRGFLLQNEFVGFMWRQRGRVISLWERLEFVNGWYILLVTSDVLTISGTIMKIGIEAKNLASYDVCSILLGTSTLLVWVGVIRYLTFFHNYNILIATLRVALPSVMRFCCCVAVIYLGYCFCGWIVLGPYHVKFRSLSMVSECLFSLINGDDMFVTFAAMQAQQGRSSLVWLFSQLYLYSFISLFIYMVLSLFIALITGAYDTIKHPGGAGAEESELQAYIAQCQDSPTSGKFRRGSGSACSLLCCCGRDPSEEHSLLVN
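Calcium fluorescence in TRPML1-DL cells induced overnight with Tet: a 110 s read after compound pin addition, then a 110 s antagonist read after challenge with 54-4 at 4 uM final (EC80).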
Six1-Eya2 inh: inhibitors of human Six1/Eya2 interaction. AlphaScreen GST-Six1/His-Eya2 binding, biochemical; active compounds read low; control for the full effect not named in the record. activity change, % (test concentration not listed). hit rate 0.56% among 360,000; in the data active = activity change below about -65%; inconclusive = about -30% to -65%; inactive = above about -30%; note: % is set by controls: 0 for no effect and ±100 for the full control effect
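Six1/Eya2 binding was read as AlphaScreen signal after compounds were pinned into GST-Six1 plus His-tagged Eya2 (5X stock 250/500 nM) in pH 8.0 Tris/NaCl/TCEP buffer, beads added, then incubated 1 h, 37 C, dark.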
CtBP-E1A blk: CtBP/E1A binding inhibition; AlphaScreen GST-E1A/His-CtBP binding, 1536-well; active compounds read low; control for the full effect not named in the record; activity change, % (concentration not given with the values); hit rate 0.49% among 340,000; in the data active means activity change below about -65%; inconclusive means about -30% to -65%; inactive means above about -30%; note: % is set by controls: 0 for no effect and ±100 for the full control effect
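In 5 uL wells, 23 nL compound meets equimolar GST-E1A and His-CtBP (5X stock 125 nM each) for 2 h, 37 °C. Beads (5X, 50 ug/mL) then 1 h, 37 °C, dark.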
D2 PAM: positive allosteric modulators of human D2 dopamine receptor. P14416. DiscoveRx D2 beta-arrestin cells, luminescence, 90 min; 100% = 57 uM dopamine signal. potentiation, % (no concentration beside the values). hit rate 0.23% among 360,000; active = potentiation of 50% or more; inconclusive = 30% to 50%; inactive = 30% or less;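 note: compound concentration not given in the record; tested on top of an EC20 dose of dopamine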
Target sequence (P14416 whole entry, looked up): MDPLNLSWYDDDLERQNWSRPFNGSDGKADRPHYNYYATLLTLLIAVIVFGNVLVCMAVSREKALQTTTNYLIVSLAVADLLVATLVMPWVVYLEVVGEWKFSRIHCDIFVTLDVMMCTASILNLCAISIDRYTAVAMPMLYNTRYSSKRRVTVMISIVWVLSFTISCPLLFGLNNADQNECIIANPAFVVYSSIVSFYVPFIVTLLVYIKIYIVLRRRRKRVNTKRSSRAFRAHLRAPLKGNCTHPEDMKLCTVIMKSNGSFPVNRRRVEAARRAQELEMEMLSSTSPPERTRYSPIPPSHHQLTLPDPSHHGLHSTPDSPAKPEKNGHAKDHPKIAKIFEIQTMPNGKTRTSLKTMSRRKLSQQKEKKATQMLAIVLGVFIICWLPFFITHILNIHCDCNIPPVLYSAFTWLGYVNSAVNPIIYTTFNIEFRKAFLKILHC
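PathHunter beta-arrestin assay in DiscoveRx D2 cells. Compounds were added with an EC20 of dopamine (50 nM final) for 90 min at 37 deg C. Luminescence was read 1 h after detection reagent, with 57 uM dopamine as the EC100 control.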
TRPML1 agonist: agonists of human TRPML1 channel | hit rate 0.12% among 410,000 | AID 624414 | TRPML1-expressing cells, Ca2+ dye fluorescence, FDSS; host cell line not named in the record; reference of the full effect not given here | Q9GZU1 | activation, % (no concentration beside the values); in the data active = activation above about 50%; inconclusive = about 30% to 50%; inactive = below about 30%; note: 0% is about no effect; the text of the record puts the active cut at 80%
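Tetracycline-induced TRPML1-DL cells are seeded and incubated overnight before loading with a no-wash Ca2+ dye and quencher. Agonist activity is taken from the 110 s fluorescence read following compound pin-transfer on an FDSS, before EC80 54-4 challenge.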
TRPV1 PAM: potentiators of human vanilloid receptor 1 (TRPV1); Q8NER1; TRPV1-expressing cells, Fluo-8 calcium influx, capsaicin EC20 potentiation; host cell line not named in the record; control for the full effect not named in the record; potentiation, % at 8.33 µM; hit rate 0.02% among 320,000; active means potentiation above 80%; inconclusive means 30% to 80%; inactive means below 30%; note: 0% is about no effect
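Cells expressing TRPV1 were dye-loaded with Fluo-8 and read kinetically: 10 s baseline, 3 min after compound (agonist portion), then 2 min after EC20 capsaicin (allosteric enhancer portion). Calcium-bound dye fluorescence at 480/520 nm.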
The depositor's hits bear a star; u = inconclusive; x = not tested or not shown; & = joins results of further samples.

SMILES | TRPML1 blocker | Six1-Eya2 inh | CtBP-E1A blk | D2 PAM | TRPML1 agonist | TRPV1 PAM
COc1ccc(Nc2cc(C(=O)NC3CCCC3)c3ccccc3n2)c(OC)c1 | 5&22 | -14 | -16 | -3 | -0.7&1.9 | 6
CC1=C(C(=O)Nc2ccccc2)C(c2ccc[nH]2)n2ncnc2N1 (stereo not given) | -3 | x | x | x | -0.3&-0.4 | 6
CCOC(=O)C1=C2SCC(=O)N2C(N)=C(C#N)C1 | 6 | -1 | 4 | -11 | 0.1 | 9
C=C(C)CSc1cc(C)nc2c(-c3ccccc3)c(C)nn12 | 28 | 16 | x | -21 | 1.7 | -18
Cc1c2cn[nH]c(=O)c2c(C)n1-c1ccccc1 | 22 | -3 | -4 | -7 | 0.6 | 2
CC1=C(C(=O)Nc2ccccc2C(F)(F)F)C(c2ccc(C)s2)NC(=S)N1 (stereo not given) | -9 | -2 | 0 | 3 | 0.2 | -7
COc1ccc2cc(CN(CCCN3CCOCC3)Cc3nnnn3C3CCCCC3)c(=O)[nH]c2c1 | 12 | -15 | 0 | -22 | 0.8 | 12
O=C(NCC(=O)N(CCc1ccccc1)C(C(=O)NC1CCCC1)c1cccnc1)c1ccco1 (stereo not given) | 2 | 2 | 2 | 2 | -0.2 | 26
Cn1c(SCC(=O)Nc2nc3ccccc3s2)nnc1-c1ccccc1 | -4 | 10 | -2 | 11 | -1.0 | 12
COc1ccc(S(=O)(=O)NNC(=O)Cc2csc(C)n2)cc1[N+](=O)[O-] | 22 | -1 | -10 | 2 | 0.2 | -2
O=C(NCc1ccco1)c1cc(C(=O)C2CC2)c[nH]1 | 2 | -2 | 5 | 4 | -0.7 | -5
O=C(Cc1c(O)c2ccccc2oc1=O)c1ccc(C(F)(F)F)cc1 | 7 | 5 | 3 | -4 | -0.7 | u
O=C(CN1CCN(c2ccccn2)CC1)Nc1ccc(F)cc1 | 8 | 0 | 0 | -7 | 0.5 | u
COC(=O)C(Cc1ccccc1)NS(=O)(=O)c1ccccc1Br (stereo not given) | -1&-14 | 3 | x | -3 | 1.7&0.6 | 6
CC(=O)Nc1ccc(SC[C@H](Cc2ccccc2)N2CC[C@@H](C(C)(C)C)CCC2=O)cc1 | -19 | -12 | -1 | -4 | 0.5&-0.8 | 16
COc1cccc(CC2(CO)CCN(C(=O)NCCc3ccccc3)CC2)c1 | -14 | 0 | 7 | -3 | -0.5 | -13
Cc1cc(NS(=O)(=O)c2ccccc2)cc(Cl)c1O | -21 | 8 | -12 | 88* | 0.1 | -8
CCn1c(Cc2ccccc2)nnc1SCC(=O)NC1CCCC1 | 20 | 8 | -8 | -3 | -0.1 | 2
C[C@@H]1CC[C@]2(O[C@H](CCO)C[C@H](O)[C@H]2O)O1 | -13 | -5 | -2 | 1 | -0.3 | x
Cc1ccccc1OCc1nnc(SC(C)C(=O)O)n1-c1ccccc1 (stereo not given) | -7 | -2 | 5 | 4 | -0.8 | x
CC(NS(=O)(=O)c1ccc(Br)cc1)C(=O)Nc1nc2ccccc2[nH]1 (stereo not given) | 0 | 4 | 16 | -8 | 0.2 | 6
CCOC(=O)CCCNC(=O)CSc1nc2ccc(OCC)cc2[nH]1 | 8 | 8 | 1 | -2 | 0.5 | 2
CC(C)C(=O)Nc1ccccc1Cc1ccccc1 | -27 | 5 | -4 | 4 | 0.0 | 21
CCNS(=O)(=O)c1ccc(NC(=O)c2ccc(Cn3cc([N+](=O)[O-])cn3)o2)cc1 | 3 | 7 | 5 | -3 | 0.1 | -5
O=C(c1ccco1)c1cn(CC(=O)N2CCCc3ccccc32)c2ccccc12 | 0 | -7 | -9 | 2 | -0.6 | -15

Following part
SMILES | TRPML1 blocker | Six1-Eya2 inh | CtBP-E1A blk | D2 PAM | TRPML1 agonist | TRPV1 PAM
CCn1c(COc2ccccc2C)nnc1SCC(=O)CC(=O)Nc1ccccc1OC | -13 | -1 | -4 | -10 | 0.0 | 2
N#CCN1CCC2(O)CCCCC2C1c1ccc2c(c1)OCO2 (stereo not given) | 14 | 6 | 3 | -4 | 0.7 | 5
O=C(CNC(=O)c1ccccc1F)NCCN1C(=O)S/C(=C\c2ccccc2Cl)C1=O | 35 | -6 | -1 | -12 | 1.1 | 3
C=CCn1c(SCC(N)=O)nnc1-c1cc2c(s1)CCC(CC)C2 (stereo not given) | 14 | -15 | -2 | 2 | 0.2 | -13
CCOC(=O)c1cnc2c(C#N)c(C)nn2c1C | 20 | -4 | -1 | -5 | 0.2 | -6
Cc1ccccc1N1C(=O)Cc2ccccc2C1=O | 11 | 1 | 6 | -7 | -0.2 | 2
CCOC(=O)[C@H]1[C@H]2COc3ccc(Cl)cc3[C@@H]2N2C(=O)[C@@H](C)NC(=O)[C@@]12C | 5 | -1 | 0 | -5 | -0.3 | x
CCc1c(C2(O)CCCCC2)[nH]c2cnccc12 | 18 | 7 | -5 | -10 | 0.7 | -4
Cc1ccc(C(=O)C=CC=Cc2ccccc2)cc1 | 11 | 4 | 0 | -9 | 1.0 | x
NC(=O)C1CCN(C(=O)CSCc2ccccc2Cl)CC1 | 40 | 0 | 10 | -5 | -0.4 | -3
Cc1cc(NC(=O)c2ccoc2C)ccc1Br | 3 | -1 | 3 | -3 | 0.1 | -5
CC(=O)Nc1ccc(C(=O)Nc2nc(-c3cc(C)n(Cc4ccccc4)c3C)cs2)cc1 | -18 | -2 | 21 | -17 | 0.5 | u
COC(=O)CNc1nc(C2CC2)nc2c1nnn2Cc1ccccc1Cl | 8 | 1 | 3 | -7 | 1.3 | 6
CC(NC(=S)Nc1ccc(OC(F)F)c(Cl)c1)C(C)(C)C (stereo not given) | 11 | -1 | 7 | -17 | 0.6 | -8
CCOC(=O)c1oc2cccc(O)c2c1CN1CCOCC1 | 15 | -2 | 5 | 1 | 1.3 | 3
CCOc1ccccc1C(=O)N[C@H](C(=O)Nc1nc2c(s1)CCCC2)C(C)C | 23 | -14 | -16 | -16 | 0.0 | 14
COc1cccc(OCCSc2nc(N)cc(N)n2)c1 | -5 | -3 | -2 | -5 | -0.7 | 11
O=C(NCCCN1CCOCC1)C1CCN(S(=O)(=O)c2ccccc2)CC1 | 0 | -2 | 7 | -13 | -0.1 | -2
Cc1ccc(Nc2c(-c3ccc(N(C)C)cc3)nc3ncccn23)cc1 | -3 | 13 | 0 | 2 | 0.2 | x
CC1(c2ccccc2)NC(=O)N(CC(=O)Nc2cc(S(=O)(=O)N3CCOCC3)ccc2Cl)C1=O (stereo not given) | 66 | 3 | -1 | 1 | 0.8 | -3
COc1ccc2[nH]cc(CCNS(=O)(=O)Cc3ccccc3)c2c1 | -14 | -1 | 0 | 0 | 0.5 | u
O=C(COC(=O)c1ccccc1OCC(=O)Nc1ccc(Br)cc1)Nc1ccccc1 | 1 | 8 | 8 | -5 | -0.4&-0.1 | 2
CCC1(CC)NC(=O)N(CC(=O)OCC(=O)Nc2ccccc2[N+](=O)[O-])C1=O | 0 | -1 | 5 | 19 | 0.5 | 7
C=Cc1ccc(C(=O)NC2CCCN(Cc3ccccc3F)C2)cc1 (stereo not given) | -13 | 3 | -7 | -14 | 1.1 | -13
Cc1ccc(S(=O)(=O)CCc2nnc(NC(=O)C3CCCCC3)s2)cc1 | x | 2 | 11 | -5 | x | -22

Next results:
SMILES | TRPML1 blocker | Six1-Eya2 inh | CtBP-E1A blk | D2 PAM | TRPML1 agonist | TRPV1 PAM
CCOC(=O)N1CCC(N(CCN(C)C)C(=S)Nc2cc(C)ccc2C)CC1 | 3 | -8 | -5 | -22 | -0.2 | 2
Cc1sc2nc(SCC(=O)N(C)C)[nH]c(=O)c2c1C | 10 | 4 | 2 | -4 | -1.0 | 1
Cc1cc(=O)oc2cc(NC(=O)c3c(Cl)cnn3C)ccc12 | 1 | 0 | 7 | -6 | 0.3 | 22
Cc1ccc(Oc2cc([N+](=O)[O-])cc3c2C(=O)Nc2ccccc2O3)cc1 | -1 | -13 | -7 | 6 | 1.0 | 0
CC(/C=N/NC(=O)c1ccccc1F)=C\c1ccccc1 | 6 | 1 | 2 | -56 | -0.6 | -14
COc1ccc(CN2CCN(S(=O)(=O)c3ccc(NC(C)=O)cc3)CC2)c(OC)c1OC | 6&-15 | 0 | x | 0 | 0.4&-0.6 | -2
O=C(CN1C(=O)NC2(CCCC2)C1=O)N1CCN(c2ccccc2Cl)CC1 | -1 | 3 | -2 | -25 | -0.4 | 6
CCc1nc2ccc(C(=O)NCCN3CCOCC3)cn2c1N(CC)CCOC | -13 | 0 | 2 | -18 | 0.1 | x
COc1ccccc1N1CCN(CCC(=O)Nc2ccc(F)cc2)CC1 | 1 | 2 | -3 | -28 | 0.0 | -14
CCOc1ccc(OCC)c(NC(=O)CN(C)S(=O)(=O)c2cccc3nsnc23)c1 | -2 | -24 | 0 | 0 | 1.0 | -5
COc1ccc(NC(=O)C2=CC(c3cccs3)=NS(=O)(=O)N2C)cc1 | 11&-9 | -13 | -16 | -7 | -0.7&0.0 | 23
Cc1ccc2nc(C3CCN(CC(=O)N4CCCCCC4)CC3)[nH]c2c1 | 0 | -1 | 6 | -15 | -0.3 | 2
CCOc1ccccc1N=NC1C(=O)N(C(N)=S)N=C1C (stereo not given) | 27 | 0 | 2 | -15 | 0.1 | 6
Cn1c(CC(=O)Nc2ccc(F)cc2)nnc1SCC(=O)NC1CCCCC1 | -14 | 10 | -5 | -3 | -0.4 | 6
NC(=O)c1ccc(-c2csnn2)cc1 | -4 | 1 | 4 | -8 | -0.2 | -12
Cc1cc(OCC(O)CNC(C)(C)C)ccc1Cl (stereo not given) | -5 | -6 | x | -9 | 0.3 | 1
O=C(Nc1ccnn1C1CCN(Cc2ccccc2)CC1)c1ccccc1Cl | -1 | -23 | 0 | -25 | 0.4 | 17
CC(=O)c1cccc(NC(=S)NCCC2=CCCCC2)c1 | 11 | -7 | -4 | -31 | 0.1 | -3
O=C1OC(c2ccc(O)cc2)(c2ccccc2O)c2ccccc21 (stereo not given) | 26 | -3 | -15 | 0 | 2.6 | x
COc1cc(S(=O)(=O)n2nc(C)cc2C)ccc1Cl | 16 | 12 | 10 | 2 | 0.2 | 0
CN(C)c1cc[n+](CC[n+]2ccc(N(C)C)cc2)cc1 | -17 | 9 | -6 | -9 | 0.0 | -24
Nc1cccnc1Sc1ccc(Cl)cc1 | -16 | 9 | 22 | 15 | 1.0 | 11
COc1cccc(NC(=O)Nc2cc(C(=O)NCC3CCCO3)ccc2N2CC3CC(C2)c2cccc(=O)n2C3)c1 (stereo not given) | 0 | -1 | -7 | -8 | -1.3 | 2

An excerpt from above in order of the TRPML1 blocker value, low to high:
Compound | TRPML1 blocker
CCOc1ccc(OCC)c(NC(=O)CN(C)S(=O)(=O)c2cccc3nsnc23)c1 | -2
O=C(NCC(=O)N(CCc1ccccc1)C(C(=O)NC1CCCC1)c1cccnc1)c1ccco1 (stereo not given) | 2
CCOC(=O)CCCNC(=O)CSc1nc2ccc(OCC)cc2[nH]1 | 8

Full records, quoted from the list:
Listed for COc1ccccc1N1CCN(CCC(=O)Nc2ccc(F)cc2)CC1 = TRPML1 blocker = 1; Six1-Eya2 inh = 2; CtBP-E1A blk = -3; D2 PAM = -28; TRPML1 agonist = 0.0; TRPV1 PAM = -14
Listed for Cn1c(CC(=O)Nc2ccc(F)cc2)nnc1SCC(=O)NC1CCCCC1 = TRPML1 blocker = -14; Six1-Eya2 inh = 10; CtBP-E1A blk = -5; D2 PAM = -3; TRPML1 agonist = -0.4; TRPV1 PAM = 6
Listed for NC(=O)c1ccc(-c2csnn2)cc1 = TRPML1 blocker = -4; Six1-Eya2 inh = 1; CtBP-E1A blk = 4; D2 PAM = -8; TRPML1 agonist = -0.2; TRPV1 PAM = -12
